LT uptake inh – blocks cellular internalization of anthrax lethal toxin | 70,000 tested, 0.67% active | Potency, µM (highest dose often 40 µM), for inactives: at the highest dose activity change, negative = inhibition, hits mostly inhibitors | Cells, anthrax lethal toxin internalization, FRET ratio (460/530); active = well fitted falling ratio curve with the 530 nm signal flat; inconclusive = other ratio curves, or a change in one channel alone; inactive = flat curves in the ratio and both channels; the % refers to the ratio; further: on the % scale 0 is the no-effect control and ±100 the full control effect; nearly all actives have a fitted effect of over 50% in size; tested in ME-180 cells; beta-lactamase reporter
Prx2 Sm inh – inhibitors of Schistosoma mansoni peroxiredoxin 2; S. mansoni Prx2 activity coupled to TGR/GSH (TGR is thioredoxin glutathione reductase), NADPH fluorescence loss, qHTS; some inactives read as strong as hits; Potency, µM; 65,000 tested, 0.07% active; AID 448; active means full or partial inhibition curve with a strong effect at the top dose; inconclusive means weaker partial or single-point curve; inactive means no accepted curve; further: series up to 57 µM; many of its hits are not listed in these tables
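Activity is read as the drop in NADPH fluorescence (365/450 nm), recorded every 30 sec for 8 min after H2O2 addition. Prx2 is coupled to TGR-driven NADPH oxidation through glutathione, in phosphate buffer pH 7.4.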
The depositor's hits bear a star; ? = inconclusive; . = no result given; & = joins results of further samples; [ ] = remark or other dose. Potency means the concentration at half of the fitted maximal effect. The list is partial; the hit share may differ from the screen's.

Every second line gives: LT uptake inh	Prx2 Sm inh
- NC(N)=NC(=O)Cc1c(Cl)cccc1Cl
 : ?	>57&>57&>57
- COc1cc([C@@H]2Oc3cc([C@H]4Oc5cc(O)cc(O)c5C(=O)[C@H]4O)ccc3O[C@H]2CO)ccc1O
 : ?	>57
- CC(=O)Nc1ccccc1
 : -7%	.
- CCCOC(=O)c1ccc(O)cc1
 : ?	.
- Cn1c(=O)c2c(ncn2CCO)n(C)c1=O
 : 9%[3.58 µM]	>57
- CCCCNC(=O)[C@@H]1Cc2ccccc2N1C(=O)[C@H](N)CC
 : ?	>57
- COc1ccccc1OC[C@H](O)COC(N)=O
 : -1%[3.58 µM]	>26
- CCC(=O)O[C@@]1(C(=O)SCF)[C@@H](C)C[C@H]2[C@@H]3C[C@@H](F)C4=CC(=O)C=C[C@@]4(C)[C@]3(F)[C@@H](O)C[C@]21C
 : 5%[3.58 µM]	>57
- CCCCCCc1ccc(O)cc1O
 : ?	.
- COc1cc2nc(N3CCN(C(=O)[C@H]4COc5ccccc5O4)CC3)nc(N)c2cc1OC
 : 7%	>57
- CCn1cc(C(=O)O)c(=O)c2cc(F)c(N3CCNCC3)nc21
 : 0%[3.58 µM]	>57
- COc1ccc(/C=C\C(=O)Nc2ccccc2C(=O)O)cc1OC
 : -5%&17%	>57&>11
- COc1cc([C@H]2Oc3cc([C@H]4Oc5cc(O)cc(O)c5C(=O)[C@@H]4O)ccc3O[C@@H]2CO)ccc1O
 : ?	.
- Cc1cccc(Nc2cc(Cl)nc(SCC(=O)O)n2)c1C
 : 6%[8 µM]	>57&>57
- CCOC(=O)NNc1nncc2ccccc12
 : -13%[3.58 µM]	>57
- CCCCOc1ccc(CC(=O)NO)cc1
 : -10%[3.58 µM]	>57
- CC[C@H]1C(=O)OC[C@H]1Cc1cncn1C
 : ?	>57&>57&>57&>57

Compound profiles, as listed above. Order of screens: LT uptake inh, Prx2 Sm inh
`CCCCNC(=O)[C@@H]1Cc2ccccc2N1C(=O)[C@H](N)CC` in the list: ?, >57
`COc1cc([C@@H]2Oc3cc([C@H]4Oc5cc(O)cc(O)c5C(=O)[C@H]4O)ccc3O[C@H]2CO)ccc1O` in the list: ?, >57

Structural class: the compounds so far with four or more nitrogen atoms
Every second line gives: LT uptake inh	Prx2 Sm inh
- Cn1c(=O)c2c(ncn2CCO)n(C)c1=O
 : 9%[3.58 µM]	>57
- COc1cc2nc(N3CCN(C(=O)[C@H]4COc5ccccc5O4)CC3)nc(N)c2cc1OC
 : 7%	>57
- CCn1cc(C(=O)O)c(=O)c2cc(F)c(N3CCNCC3)nc21
 : 0%[3.58 µM]	>57
- CCOC(=O)NNc1nncc2ccccc12
 : -13%[3.58 µM]	>57

An excerpt of these results, as tab-separated lines:
Structure	LT uptake inh	Prx2 Sm inh
COc1cc([C@H]2Oc3cc([C@H]4Oc5cc(O)cc(O)c5C(=O)[C@@H]4O)ccc3O[C@@H]2CO)ccc1O	?	.
Cc1cccc(Nc2cc(Cl)nc(SCC(=O)O)n2)c1C	6%[8 µM]	>57&>57
CCOC(=O)NNc1nncc2ccccc12	-13%[3.58 µM]	>57

Screening data deposited in PubChem BioAssay by National Center for Advancing Translational Sciences (NCATS).
